# Compound activity: PubChem, several laboratories
# PKD1 inh – inhibitors of human PKD1 kinase; PKD1 kinase fluorescence polarization assay; inhibition, %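 (about 10 µM by stock and volumes)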; Q15139; actives 0.056% (n = 200,000);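 active = inhibition of 50% or more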;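 also: controls were vehicle for no effect and a reference inhibitor for full effect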
# Insulin prom inh – TRM-6 insulin promoter activity inhibition; TRM-6 cells (human fetal islet line), insulin promoter-eGFP reporter, imaging; reporter expression induced with tamoxifen; inhibition, % at 2 µM; actives 0.9% (n = 130,000);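 active = inhibition above the mean plus 3 SD, with well images judged a real hit on visual review, cut at about 60% in these data, passing the limit was not always enough; inconclusive = inhibition over the cutoff but images rejected on review; inactive = inhibition not above the cutoff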
# HSV augment – HSV replication enhancement | HSV replication augmentation in cells, fold increase | maximum fold increase | actives 0.005% (n = 220,000);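 active = peak rise of 1.5-fold or more in the series; inconclusive = self-fluorescent or not available for retest; tested in PC3 cells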;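 also: first round at 10 µM; read as green reporter fluorescence; hits show the peak of a series up to 25 µM; 1 = signal of infected wells without compound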
# GALR2 ag – agonists of human galanin receptor 2 (GALR2) | O43603 | GALR2-expressing cells, agonist activation read-out | activation, %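 (tested at 5 µM)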 | actives 0.48% (n = 140,000) | AID 803;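 active = above mean plus 3 SD of all compounds, about 5% in these data, not always enough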;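 also: 0% = vehicle buffer wells and 100% = reference agonist at full effect; tested in CHO reporter cells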
# Target sequence (O43603 whole entry, looked up): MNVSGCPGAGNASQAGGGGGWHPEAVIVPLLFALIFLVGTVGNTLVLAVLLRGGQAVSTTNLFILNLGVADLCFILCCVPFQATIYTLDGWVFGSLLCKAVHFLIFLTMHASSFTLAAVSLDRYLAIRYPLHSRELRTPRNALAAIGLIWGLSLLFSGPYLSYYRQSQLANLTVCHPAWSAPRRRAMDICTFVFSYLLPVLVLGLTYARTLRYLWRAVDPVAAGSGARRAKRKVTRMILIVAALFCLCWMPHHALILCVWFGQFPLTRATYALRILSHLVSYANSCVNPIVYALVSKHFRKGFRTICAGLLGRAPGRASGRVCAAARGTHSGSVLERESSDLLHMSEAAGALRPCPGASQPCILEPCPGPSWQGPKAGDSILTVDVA
# RGS16-Gao HTS – modulates binding between human RGS16 and Galphao; AID 1441; bead-based flow cytometry RGS16-Galphao binding, fluorescence; actives lie on both sides; actives 0.38% (n = 220,000); binding response (% of control), % at 10 µM; O15492+P09471;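 active = below 25% or above 175%, edge rows of some plates excepted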;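 also: Galphao activated by GDP with aluminum fluoride before binding; 100% = wells without compound and 0% = beads without RGS; some results beyond the cut were filed as inactive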
# Target sequence (O15492 whole entry, looked up): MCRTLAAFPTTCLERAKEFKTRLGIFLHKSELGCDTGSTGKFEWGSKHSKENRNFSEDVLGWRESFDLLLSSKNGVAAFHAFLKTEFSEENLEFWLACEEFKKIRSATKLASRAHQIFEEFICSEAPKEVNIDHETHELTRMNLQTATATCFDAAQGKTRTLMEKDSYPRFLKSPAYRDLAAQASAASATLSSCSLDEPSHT
# Target sequence (P09471 whole entry, looked up): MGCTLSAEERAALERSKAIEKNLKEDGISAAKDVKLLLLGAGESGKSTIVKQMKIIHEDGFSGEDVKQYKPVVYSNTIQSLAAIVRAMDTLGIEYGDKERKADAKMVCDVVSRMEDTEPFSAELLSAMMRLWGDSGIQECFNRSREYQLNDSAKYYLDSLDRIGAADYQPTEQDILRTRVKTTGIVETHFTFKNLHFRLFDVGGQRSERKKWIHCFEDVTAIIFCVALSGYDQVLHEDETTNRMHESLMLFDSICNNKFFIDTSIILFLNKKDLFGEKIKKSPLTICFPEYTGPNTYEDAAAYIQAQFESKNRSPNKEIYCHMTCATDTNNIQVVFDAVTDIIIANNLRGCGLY
# Insulin prom inh cell count – second read-out of Insulin prom inh, no call of its own (marks repeat the call); normalized cell count, %; measured here: cell count, toxicity; reference of the scale not given here;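 cells exposed to compound for 48 h; stained nuclei by imaging scaled within each plate; lower means fewer cells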
# HSV augment primary fold – further read-out of HSV augment, marked with its call; fold increase; compound at 10 µM; measured here: primary screen fold increase 10 uM; tested in PC3 cells;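 GFP signal in the first replicate; 1 = infected wells without compound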
# Active calls of the source: *; i = inactive; ? = inconclusive; . = not tested or not shown.
SMILES,PKD1 inh,Insulin prom inh,Insulin prom inh cell count,HSV augment,HSV augment primary fold,GALR2 ag,RGS16-Gao HTS
CCOC(=O)n1c(=O)oc2cc(S(=O)(=O)N3CCCCC3)ccc21,-2.7,0.0,131.2,i,1.19,-0.5,99.2
Cc1cc(CNC(=O)c2cc(COc3c(F)cccc3F)on2)nn1C,10.2,.,.,i,0.94,.,102.2
O=C(CSc1ncn[nH]1)NCCOc1ccccc1,-6.5,60.0,56.6,i,0.92,-1.8,101.9
C=CCN1C(=O)C(Cc2ccc(SC(F)F)cc2)SC1=Nc1ccc(C(=O)O)cc1 (stereo not given),1.0,.,.,i,0.88,.,97.7
CN(C)CCN(C(=O)c1ccc(S(=O)(=O)N(C)c2ccccc2)cc1)c1nc2cc3c(cc2s1)OCCO3,.,.,.,i,1,.,88.5
COc1ccc(OCCOC(=O)c2ccc(-n3cnnn3)cc2)cc1,-3.9,31.4,146.3,i,0.97,-0.6,100.7
O=C1c2ccccc2C(=O)N1OCCOCCOCCBr,0.9,-2.7,75.4,i,0.92,-3.4,111.5
COc1ccccc1C(=O)N(NC(=O)Oc1ccccc1)C(C)(C)C,-5.4,-85.2,77.5,i,0.99,-1.8,110.6
COc1ccc(NC(=O)C(NC(=O)CC2NC(=O)NC2=O)c2ccccc2)cc1 (stereo not given),-3.3,0.0,140.8,i,1.03,-0.3,68.1
Cc1nn(C)c(C)c1CN(C(=O)CCc1nnc(Cc2c[nH]c3ccccc23)o1)C(C)C,1.2,.,.,i,1.04,.,115.1
Cc1cccc(NC(=S)N/N=C(\c2ccccc2)C(C)C)c1,-1.7,.,.,i,0.83,.,120.7
COc1ccc(/C=N/NC(=O)c2ccc(Cn3cc([N+](=O)[O-])cn3)o2)c(OC)c1C,6.8,.,.,.,.,-2.1,99.1
Cc1ccccc1Oc1cc(-n2ncc(Cl)c(Cl)c2=O)ncn1,-19.4,-270.4,14.5,i,0.46,-1.8,102.0
CC(C)CN1C(=O)CC(Sc2ccccc2C(=O)O)C1=O (stereo not given),-13.4,37.5,111.7,i,1.14,0.3,102.2
Cc1csc(C2=C(O)CN(c3ccc4c(c3)OCCOCCOCCOCCO4)C2=N)n1,-9.5,0.0,113.6,i,0.83,-2.1,102.9
CCOc1ccc(CCNC(=O)CSCc2ccc(C)cc2)cc1OCC,-1.6,-35.5,94.7,i,0.97,-2.0,91.8
CCn1c(=O)cc(OCC(=O)NCC2CCCO2)c2ccccc21 (stereo not given),1.7,.,.,i,0.87,0.7,103.5
COC(=O)c1cc(C(=O)c2cc(F)ccc2O)cn2c(=O)c3c(C)c(C)sc3nc12,.,.,.,?,.,.,104.6
COc1ccc(Nc2nnc(SC(C(=O)Nc3ccc(OC)c(Cl)c3)c3ccccc3)s2)cc1 (stereo not given),-16.4,0.0,100.8,i,0.74,-0.8,101.7
O=C(O)c1ccc(CSc2nc3ccccc3o2)cc1,-13.6,7.1,66.5,i,0.87,-2.8,85.8
C#CCn1c(=NC(=O)c2cc(-c3cccs3)nc3ccccc23)sc2cc(S(N)(=O)=O)ccc21,-13.9,0.0,90.0,i,0.71,2.5,84.0
S=C(c1cccs1)N1CCCC1,-4.2,-14.3,78.9,i,0.86,-1.1,103.2
Cc1ccc(NC(=O)C2CC(=O)N/C(=N/NC(=O)c3ccc(C)cc3)S2)cc1 (stereo not given),-5.6,.,.,i,1.05,0.2,104.7
COc1cccc(N2C(=O)C3CCCN3C2c2cccs2)c1 (stereo not given),-4.8,.,.,i,0.97,.,106.2
Cc1cc(C)cc(NC(=S)N2CCN(c3ccc(F)cc3)CC2)c1,4.5,-26.5,46.0,i,0.96,2.2,98.5

# Structures from the list above with a thiophene ring, fused or not (four):
SMILES,PKD1 inh,Insulin prom inh,Insulin prom inh cell count,HSV augment,HSV augment primary fold,GALR2 ag,RGS16-Gao HTS
COC(=O)c1cc(C(=O)c2cc(F)ccc2O)cn2c(=O)c3c(C)c(C)sc3nc12,.,.,.,?,.,.,104.6
C#CCn1c(=NC(=O)c2cc(-c3cccs3)nc3ccccc23)sc2cc(S(N)(=O)=O)ccc21,-13.9,0.0,90.0,i,0.71,2.5,84.0
S=C(c1cccs1)N1CCCC1,-4.2,-14.3,78.9,i,0.86,-1.1,103.2
COc1cccc(N2C(=O)C3CCCN3C2c2cccs2)c1 (stereo not given),-4.8,.,.,i,0.97,.,106.2

# Continuation:
SMILES,PKD1 inh,Insulin prom inh,Insulin prom inh cell count,HSV augment,HSV augment primary fold,GALR2 ag,RGS16-Gao HTS
Cc1ccc(C)c(NC(=S)N2CCN(CCO)CC2)c1,2.8,29.7,92.2,i,0.98,-0.4,99.0
COc1ccccc1OCC(=O)NCc1ccco1,19.0,.,.,i,0.63,0.4,96.0
CCNC(=O)NC(=O)CN(C)c1ccccc1,-3.4,9.1,50.7,i,0.95,.,110.1
Nc1nonc1-n1nnc(C(=O)N/N=C/c2ccc(Br)cc2)c1CSC1=NCCS1,-4.2,.,.,i,0.99,0.4,137.0
COc1ccc(C(=O)C2CCCN(C(=O)c3cccnc3OC)C2)c(C)c1 (stereo not given),-5.0,.,.,i,1.12,.,97.3
CCc1nnc(NC(=O)CSc2nnc(CNc3cccc(Cl)c3)n2CC)s1,-5.8,23.3,76.5,i,0.93,-2.2,91.3
COc1ccc(C(=O)NN2CC(O)=C(c3nc4ccccc4n3C)C2=N)cc1OC,10.5,-47.1,82.5,i,0.96,-1.9,101.9
COc1ccccc1N(C(=O)CCl)c1cn(C(C)=O)c2ccccc12,.,.,.,i,0.53,.,90.2
CC(C)CC(=O)N1CCC(O)(CS(=O)(=O)Cc2ccccc2Cl)CC1,-2.1,-53.3,119.4,i,0.94,-2.9,102.8
O=C(c1cc(-c2ccccc2)on1)N1CCc2ccccc2C1,8.4,-14.3,108.2,i,1.05,.,100.2
O=C(CCS(=O)(=O)c1ccc(Br)cc1)Nc1cc(F)ccc1F,-7.8,6.7,76.1,i,0.96,-1.0,101.7
Cn1c(=O)cc(SCC(=O)N2CCN(C(=O)c3ccco3)CC2)c2ccccc21,-6.5,2.9,79.6,i,1.06,-1.5,101.0
O=C(CC1Sc2ncnn2C1=O)Nc1ccc(Br)cc1 (stereo not given),-0.6,.,.,i,0.93,-1.6,101.9
CCOC(=O)C(CC)Sc1cc(C)nc2ccc(OC)cc12 (stereo not given),8.0,.,.,i,1,.,102.5
O=S(=O)(Nc1ccc(S(=O)(=O)N2CCCCC2)cc1)c1cccs1,-0.6,3.5,100.0,i,0.863,-3.6,98.8
CC1=C(C#N)C(NC(=O)c2ccccc2Cl)(C(F)(F)F)C(=O)N1 (stereo not given),10.1,-38.2,73.1,i,1.01,2.0,102.1
C=CCc1ccc(OCCCCN2CC(C)CC(C)C2)c(OC)c1 (stereo not given),-1.4,7.7,127.2,i,0.83,.,102.8
CC(C)(C)Nc1c(-c2cccs2)nc2ccccn12,0.2,46.1,100.0,i,0.82,.,110.8
O=C1c2ccccc2CN1CCNS(=O)(=O)c1ccc2ccccc2c1,-0.6,-33.3,102.4,i,0.95,-1.8,92.6
Cc1cc(OCC(=O)N2CCOCC2)c(C(C)C)cc1Cl,-2.6,-33.3,111.5,i,0.88,-1.9,106.5
C/C(=N\Nc1nnc(C)c(=O)[nH]1)C(=O)O,-1.9,-34.1,136.1,i,1.08,0.8,83.4
Fc1ccc(COc2cccc(CNCc3ccncc3)c2)cc1,-10.6,.,.,i,1.1,.,100.9
COc1ccc2c(C)cc(N3CCOCC3)nc2c1,-0.6,28.6,80.0,i,0.88,-1.6,103.8
CCCCN(CC)CCCNC(=O)CC1Nc2ccccc2NC1=O (stereo not given),8.7,5.6,57.3,i,1.05,-2.2,96.4
O=C(Nc1ccccc1)N1CCCN(c2ccc(C(F)(F)F)cn2)CC1,.,.,.,i,0.99,.,72.5
SMILES,PKD1 inh,Insulin prom inh,Insulin prom inh cell count,HSV augment,HSV augment primary fold,GALR2 ag,RGS16-Gao HTS
COc1ccc(-c2noc(C(C)n3nc(C)c([N+](=O)[O-])c3C)n2)cc1OC (stereo not given),-6.8,8.9,88.6,i,0.943,-0.4,101.8
Cc1ccc(C(=O)N2CCN(CCNC(=O)C(=O)NC(C)C)CC2)cc1,5.1,.,.,i,1.1,.,97.3
COc1cc(C(=O)N/N=C/c2sc(N3CCOCC3)nc2-c2ccccc2)cc(OC)c1OC,-3.0,.,.,i,0.96,.,92.1
COc1ccccc1/C=C/[C@@H]1C[C@H]2CN(Cc3cccc(Cl)c3)C(=O)[C@]23CCCN13,7.0,.,.,i,0.96,.,96.3
COc1ccc(/C=N/Nc2nc3ccccc3c(=O)n2-c2ccccc2)cc1OC,-12.1,-15.6,146.1,i,0.96,1.4,99.6
O=C(CC(Nc1ccccc1)c1ccc(F)cc1)c1ccccc1 (stereo not given),0.5,.,.,i,0.88,-0.2,105.1
O=C(COC(=O)C1CC(=O)N(Cc2ccccc2)C1)Nc1ccc2c(c1)OCO2 (stereo not given),0.9,-84.6,62.7,i,0.92,-1.3,109.8
COc1ccc([N+](=O)[O-])cc1N(CC(=O)N1CCOCC1)S(C)(=O)=O,5.8,-60.0,143.2,i,0.89,.,98.5
O=C(O)COc1ccccc1C(Nc1ccccn1)c1cc(Cl)c2cccnc2c1O (stereo not given),-9.3,-31.6,132.5,i,1.08,0.5,102.6
CCc1c(C)sc(NC(=O)/C=C/c2ccc3c(c2)OCO3)c1C(=O)OC,-9.6,.,.,i,1.04,-0.9,123.8
COc1ccc(NC(=O)C(=O)NNC(=O)c2cccs2)cc1,-1.7,.,.,i,0.97,-1.2,81.9
Cc1cc(Cl)c(OCCCN(C)C)c(Br)c1,-6.3,-33.3,97.3,i,0.96,-0.9,102.0
O=C(NCc1ccc(Cl)cc1)c1ccc(-c2ccccc2C(F)(F)F)o1,-7.9,20.0,122.1,i,0.89,-2.2,106.8
Cc1[nH]n(-c2cccc(Cl)c2)c(=O)c1C=NCc1ccco1,-3.0,5.6,151.7,i,0.94,.,108.9
CCC1SC(N)=NC1=O (stereo not given),-6.1,19.2,115.4,i,0.93,-3.5,101.2
CC1(C)CC(=O)C(C2C3=C(CC(C)(C)CC3=O)Oc3ccccc32)=C(O)C1 (stereo not given),0.0,-46.9,53.9,i,0.83,-1.3,90.4
CCN(c1ccccc1)S(=O)(=O)c1ccc(Cl)c(NC(=O)CSc2n[nH]c(N)n2)c1,-9.8,.,.,i,1.06,-0.7,88.6
CCC1N=C(SC)NC(C)=C1C(=O)c1ccccc1 (stereo not given),-9.5,-5.9,124.6,i,0.95,.,100.2
COc1ccc2nc(NC(=O)CCc3cc(OC)c(OC)c(OC)c3)sc2c1,0.4,.,.,i,1.03,.,99.5
CC(Cc1ccccc1)NC(=O)c1ccc([N+](=O)[O-])cc1 (stereo not given),-10.3,34.7,68.7,i,1.18,-0.5,106.3
CNC(=O)Nc1ccc(Cl)cc1,-9.0,30.8,126.5,i,1.03,-0.9,109.6
COc1ccccc1CNC(=O)CSc1ccccc1,3.4,-17.6,138.2,i,1.13,.,108.9
Nn1c(Nc2ccccc2)nc2sc3c(c2c1=O)CCCC3,0.6,.,.,i,0.87,.,101.0
C=CCNC(=O)c1ccc2c3n(nc2c1)-c1ccccc1CO3,.,.,.,i,0.8,.,104.9
O=C(NCCN1CCOCC1)Nc1ccccc1,-2.5,.,.,.,.,-1.4,103.1
Cc1nn(-c2cccc(C(F)(F)F)c2)c(Cl)c1/C=N/Nc1cccc(C(=O)O)c1,-10.4,14.8,37.3,i,1.08,-0.7,51.3
CCN(CC)CCCn1c(=S)[nH]c2ccc(Cl)cc2c1=O,-0.5,-32.5,146.4,i,0.98,-2.0,96.9
Nc1ccc2oc3ncccc3c(=O)c2c1,-5.9,2.6,168.1,i,0.97,-0.4,47.0
COc1cc(Cc2nc3ccc(S(=O)(=O)N4CCOCC4)cc3[nH]2)cc(OC)c1OC,-4.3,-5.5,104.8,i,0.95,-1.4,95.0
CCCc1cc(=O)c2ccc(OC/C(C)=N/O)cc2o1,.,.,.,i,1.13,.,94.7

# In a second layout: results already given.
# The line under a structure holds: PKD1 inh	Insulin prom inh	Insulin prom inh cell count	HSV augment	HSV augment primary fold	GALR2 ag	RGS16-Gao HTS
CC1(C)CC(=O)C(C2C3=C(CC(C)(C)CC3=O)Oc3ccccc32)=C(O)C1 (stereo not given)
 : 0.0	-46.9	53.9	i	0.83	-1.3	90.4
CCN(c1ccccc1)S(=O)(=O)c1ccc(Cl)c(NC(=O)CSc2n[nH]c(N)n2)c1
 : -9.8	.	.	i	1.06	-0.7	88.6
CCC1N=C(SC)NC(C)=C1C(=O)c1ccccc1 (stereo not given)
 : -9.5	-5.9	124.6	i	0.95	.	100.2
COc1ccc2nc(NC(=O)CCc3cc(OC)c(OC)c(OC)c3)sc2c1
 : 0.4	.	.	i	1.03	.	99.5
